Screening results: PubChem, National Center for Advancing Translational Sciences (NCATS)
Rango-impB inh – Rango-importin beta binding inhibition | Q14974 | Rango CFP/YFP FRET sensor + importin beta, 45 min | Potency, µM (highest dose often 92.2 µM), without a hit: at the top dose inhibition of complex formation | hit rate 0.031% among 340,000; active = rising FRET ratio curve, often small or poorly fitted; inconclusive = mostly compound fluorescence or quenching in the first reads; inactive = flat curves in all reads;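 further: potency means the concentration at half of the fitted maximal effect; 0% = DMSO wells and 100% = buffer wells lacking importin beta; nearly all actives have a fitted effect of over 15% in size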
Target sequence (Q14974 whole entry, looked up): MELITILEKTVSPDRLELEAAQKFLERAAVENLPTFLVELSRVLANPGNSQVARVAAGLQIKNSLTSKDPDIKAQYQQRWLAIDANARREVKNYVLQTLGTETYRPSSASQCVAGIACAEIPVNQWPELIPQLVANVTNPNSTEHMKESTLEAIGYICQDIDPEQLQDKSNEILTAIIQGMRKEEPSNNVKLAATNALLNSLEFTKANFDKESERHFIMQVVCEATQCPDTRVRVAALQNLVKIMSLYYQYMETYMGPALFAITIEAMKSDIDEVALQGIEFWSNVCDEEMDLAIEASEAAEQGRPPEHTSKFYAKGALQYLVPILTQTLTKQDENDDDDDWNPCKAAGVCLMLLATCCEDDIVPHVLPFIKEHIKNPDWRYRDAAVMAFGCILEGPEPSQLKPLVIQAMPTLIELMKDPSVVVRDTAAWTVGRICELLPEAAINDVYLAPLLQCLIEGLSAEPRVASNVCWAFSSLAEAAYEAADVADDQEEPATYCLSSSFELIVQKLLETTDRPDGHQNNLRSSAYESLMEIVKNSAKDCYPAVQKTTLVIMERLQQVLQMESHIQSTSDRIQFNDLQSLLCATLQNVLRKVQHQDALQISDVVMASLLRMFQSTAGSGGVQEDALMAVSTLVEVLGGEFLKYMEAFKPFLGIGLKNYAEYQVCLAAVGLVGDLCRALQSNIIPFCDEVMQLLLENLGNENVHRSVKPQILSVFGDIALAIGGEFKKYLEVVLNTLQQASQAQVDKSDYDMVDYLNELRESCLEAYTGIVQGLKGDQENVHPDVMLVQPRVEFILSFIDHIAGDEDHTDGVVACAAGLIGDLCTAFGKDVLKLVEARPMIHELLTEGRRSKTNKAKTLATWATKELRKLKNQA
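FRET biosensor Rango (snurportin 1 IBB between N-terminal EYFP and C-terminal Cerulean), 50 nM in PBS/1 mM DTT/0.02% Tween-20/0.1% BSA, preincubated 5 min RT with compound; 0.125 microM importin beta added, 45 min RT, CFP/YFP FRET ratio read.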
Rango release inh – inhibition of RanGTP-driven Rango-importin beta dissociation. hit rate 0.071% among 340,000. AID 540253. Potency, µM (top dose mostly 46.1 µM), for inactives: top-dose activity change, negative = inhibition. Biochemical FRET Rango-importin beta, RanGTP-induced dissociation. O95149+P62826; active means falling FRET ratio curve, often poorly fitted, with flat reads before Ran was added; inconclusive means other falling curves, or compound fluorescence or quenching; inactive means flat or rising ratio curve;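 further: potency means the concentration at half of the fitted maximal effect; % of control where 0% means no effect; nearly all actives have a fitted effect of over 45% in size; -100% = wells without RanGTP and RCC1; the record marks most hits as doubtful in a second field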
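Quantitative HTS using a FRET biosensor: 0.1 uM Rango, 0.25 uM importin beta, 0.6 uM Ran, 2 mM GTP, 0.2 uM RCC1 final, PBS with DTT, Tween-20 and BSA. Post-read taken 45 min after Ran addition.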
miR-21 reporter – miR-21 reporter, rising signal | HeLa miR-21 FLuc reporter, luciferase, 48 h | Potency, µM (titrated, usually from 38.3 µM), for the others: at the top dose reporter change, positive = more light | 340,000 tested, under 10 active; active = well fitted rising curve with a large enough effect; inconclusive = small, poorly fitted or top-dose-only effect; inactive = no such curve, though single readings can be large or run the other way;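 further: % of control where 0% means no effect; miR-21 action dims this reporter so a rising signal means less miR-21 action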
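Compounds were titrated across several concentrations (up to approximately 40 uM) and incubated 48 hours with HeLa miR-21-FLuc reporter cells (miR-21 target sequence downstream of FLuc, endogenous miR-21). Readout was firefly luciferase luminescence after lytic detection reagent.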
GLA inh pH 4.5 – inhibitors of human alpha-galactosidase A at pH 4.5; P06280; purified enzyme, 4-MU-alpha-Gal fluorescence, pH 4.5; activity change, negative = inhibition, % at 105 µM; 230,000 tested, under 10 active; inconclusive = small, poorly fitted or top-dose-only inhibition, or a rising curve; inactive = flat fitted curve, though single readings scatter; no compound was filed as active;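 further: 0% = full activity with enzyme and -100% = basal without enzyme; dose as in the result columns while the protocol names 77 µM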
Active calls of the source: *; ? = inconclusive; · = not tested or not shown; & = joins results of further samples. The list is partial. The share of hits here may be higher or lower than overall.

SMILES	Rango-impB inh	Rango release inh	miR-21 reporter	GLA inh pH 4.5
CCOCc1cnc(C)nc1NCC(=O)c1c(C)[nH]c2ccccc12	1.3%	-6%	6%	-3
O=C(NCc1nnc(SCc2ccccc2)n1-c1ccccc1)C12CC3CC(CC(C3)C1)C2	-1.4%	18%	-10%	-5
Cc1ccc(CNC(=O)C2CNc3cc(C)ccc3O2)cc1 (stereo unspecified)	?	-8%	-7%	-2
Oc1ccc(Cn2ccnc2)c2cccnc12	0.5%	9%	0%	-2
CC(=O)OCC12COC3c4ccccc4OC(C)(CC1C)C3C2C (stereo unspecified)	0.0%	-3%	8%	-23
O=C(CSC1=NS(=O)(=O)c2cc(Cl)ccc2N1)Nc1ccccc1F	-1.1%	-1%	·	·
CCCCN(C)CCC(=O)Nc1ccc(F)c(F)c1	-2.2%	8%	-2%	0
COc1ccc(-c2nnnn2C)cc1S(=O)(=O)Nc1ccc(C)cc1C	-0.1%	3%	-4%	·
Cc1cc(C)c(NC(=O)Cn2c([N+](=O)[O-])cnc2C)c(C)c1	-0.6%	0%	3%	6
O=C(CS(=O)(=O)c1ccccc1)N1CCN(c2ccccc2)CC1	0.4%	-5%	·	·
COC(=O)c1ccc(NC(=S)NC(=O)c2c(-c3ccccc3)noc2C)cc1	?	9%	-5%	-26
O=C(COc1ccc2c3c(c(=O)oc2c1)CCCC3)NCCCn1ccnc1	5.1%	4%	-1%	·
COc1ccc(C(=O)OCC(=O)Nc2ccc(OC)c(S(=O)(=O)N3CCCCC3)c2)cc1[N+](=O)[O-]	-0.1%	-2%	·	·
CC1CC(OCC(O)C[N+]2(C)CCOCC2)CC(C)(C)C1 (stereo unspecified)	-0.2%	0%	1%	-2
COc1ccc(N/C(=N/c2nc(C)cc(C)n2)NC(=O)Nc2ccc(Cl)c(Cl)c2)c(OC)c1	-1.3%	6%	-6%	1
Cc1ccc2nc(Cl)c(C#N)cc2c1	-6.4%	11%	-11%	6
O=C(/C=C/c1c(Cl)nc2ccccn12)N1CCCCC1	4.8%	12%	-37%	5
CNC(=O)COc1coc(CN2CCN(c3ccccc3OC)CC2)cc1=O	-0.6%	-1%	0%	·
CC(C)CNC(=O)c1cc(-c2ccc3c(c2)OCO3)on1	-2.3%	1%	-58%	·
Cc1ccc(OCC(=O)NNC(=O)c2ccc3c(=O)n4c(nc3c2)CCC4)cc1	-4.5%	14%	·	·
O=S(=O)(c1ccc2ccccc2c1)N1CCN(C2CCN(Cc3ccccc3)CC2)CC1	-1.8%	3%	17%	4
CCOc1cc(/C=C/c2ccc3cccc([N+](=O)[O-])c3n2)cc(Cl)c1O	5.0%	2%	-1%	-4
COc1cc2c(cc1OC)C(c1cc(OC)c(OC)cc1[N+](=O)[O-])N(C(C)=O)CC2 (stereo unspecified)	6.3%	-1%	-3%	·
O=S(=O)(Nc1ccc2c(c1)OCCO2)c1cnc[nH]1	-0.3%	-21%	-2%	-2
Cc1c(C)[n+](=O)c(-c2cccs2)c(C)n1[O-]	-2.6%	-5%	-5%	2
CC(=O)Nc1c(O)[nH]c2ccccc12	-0.6%	-8%	0%	-8
O=C(N/N=C/c1coc2ccccc2c1=O)c1cn(-c2ccccc2)nc1-c1ccccc1	0.3%	15%	-4%	1
Cn1nc(-c2ccccc2)cc1NS(=O)(=O)c1ccccc1	5.3%	1%	2%	0
Cc1ccc2nc(C)cc(N/N=C/c3ccccc3O)c2c1	1.7%	2%	-21%	·
Cc1[nH][nH]c(=O)c1/C=N/N1CCOCC1	3.6%	9%	-1%	-4
CC(=O)Nc1ccc(/C=N/NC(=O)c2cc3ccccc3nc2C)cc1	-0.2%	0%	-6%	-5
CCCCCC(O)c1cccc(OCc2ccc3ccccc3n2)c1 (stereo unspecified)	0.0%	13%	-8%	-16&-2&-24
OCCN(Cc1ccccc1)CC1CC=CCC1 (stereo unspecified)	0.7%	0%	-7%	-4
O=S(=O)(c1ccc(Br)cc1)c1nc(-c2ccco2)oc1NCCCn1ccnc1	-0.8%	-1%	·	·
CCCN(CC(=O)Nc1ccccc1C)C(=O)c1nn(CC)c(=O)c2ccccc12	1.8%	3%	·	·
Cc1ccccc1C(=O)N1CCN(c2ccc(NC(=O)c3ccc([N+](=O)[O-])o3)cc2)CC1	4.9%	-5%	3%	·
NS(=O)(=O)c1ccc(NC(=O)CSc2nnc(Cc3cccs3)n2-c2ccccc2)cc1	-4.5%	-8%	-8%	-5
N#C/C(=C\c1ccc(F)c(Cl)c1)S(=O)(=O)c1ccccn1	-5.2%	-12%	-20%	1
O=C(c1cc2c(cc1Br)OCCCO2)N1CCCCC1	2.4%	0%	-5%	-5
CN(C)C(=O)COC(=O)c1ccccc1NC(=O)c1ccco1	-3.4%	-21%	-2%	5
CN1CCN(CCCNC(=O)c2cn(C3CCCCC3)c(=O)c3c2c2ccccc2n3C)CC1	-2.5%	-4%	-14%	1
CS(=O)(=O)N1CC(C(=O)O)Oc2ccc(CC(=O)O)cc21 (stereo unspecified)	2.4%	16%	-1%	9
COc1ccccc1-c1nc2c3ccccc3nc(=S)n2[nH]1	-4.9%	7%	-16%	·
COc1ccccc1NC(=O)CCC(=O)OCc1ccc([N+](=O)[O-])cc1	0.0%	9%	0%	1
Cc1ccccc1CC(=O)N1CCN(C(=O)C2CCCO2)CC1 (stereo unspecified)	-4.9%	4%	4%	·
CCOC(=O)CCN(Cc1sccc1C)S(=O)(=O)c1ccc(F)cc1	1.8%	15%	0%	-3
CC(C)c1ccccc1OCC(=O)Nc1cc(S(=O)(=O)N2CCOCC2)ccc1N1CCCC1	-1.4%	4%	·	·
CN(C(=O)COC(=O)c1ccccc1Nc1ccccc1)C1CCS(=O)(=O)C1 (stereo unspecified)	5.3%	-11%	-8%	0
Cc1nn(C)c(NC(=O)c2ccccc2Cl)c1Br	0.8%	10%	-2%	·
CC(C)OC(=O)c1cc2ccccc2oc1=O	-1.9%	0%	-14%	6

Part of the list above, as labelled records:
CN(C(=O)COC(=O)c1ccccc1Nc1ccccc1)C1CCS(=O)(=O)C1 (stereo unspecified)
  Rango-impB inh = 5.3%
  Rango release inh = -11%
  miR-21 reporter = -8%
  GLA inh pH 4.5 = 0
Cc1nn(C)c(NC(=O)c2ccccc2Cl)c1Br
  Rango-impB inh = 0.8%
  Rango release inh = 10%
  miR-21 reporter = -2%
  GLA inh pH 4.5 = ·

(list continues)
SMILES	Rango-impB inh	Rango release inh	miR-21 reporter	GLA inh pH 4.5
COc1ccc(OC)c(CN2CCN(C(=O)CNC(=O)c3ccc(C(C)(C)C)cc3)CC2)c1	1.1%	-11%	·	·
COc1ccccc1-n1cnc2cc(NS(=O)(=O)c3ccc(Br)cc3)ccc21	-4.5%	-11%	14%	2
COc1ccc(CCNC(=O)C(=O)NCC2OCCN2S(=O)(=O)c2ccccc2)cc1OC (stereo unspecified)	9.1%	-9%	4%	·
COc1ccc(/C=C/C(=O)c2ccccc2)cc1COc1ccccc1F	3.3%	3%	1%	-8
Cc1cccc(NC(=S)N2CCC(N(C)CC3CCCO3)CC2)c1C (stereo unspecified)	0.4%	-13%	-2%	0
O=C1C(C=NCc2ccncc2)=C(O)c2ccccc21	-0.2%	-1%	-47%	-11
COc1ccccc1OCCC(=O)OCC(=O)NCc1ccc(F)cc1	0.0%	3%	·	·
CCC(C)NC(=O)C1CCN(CCCc2ccccc2)CC1 (stereo unspecified)	0.0%	19%	0%	·
COc1ccc(C(=O)N2CCN(C(=O)c3ccco3)CC2)cc1	-0.5%	-3%	0%	-2
Cc1ccc(S(=O)(=O)N2CCOCC2)cc1NC(=O)COC(=O)c1cncc(Br)c1	-6.1%	-16%	·	·
O=C(O)C1Cc2ccccc2CN1C(=O)c1ccccc1Cl (stereo unspecified)	1.3%	-14%	-2%	8
COc1cc(-c2noc(-c3ccco3)n2)cc(OC)c1OC	-2.2%	2%	-18%	1
CCC1Oc2ccc(C)cc2N(CC(=O)NCC2CCCO2)C1=O (stereo unspecified)	-2.4%	12%	0%	·
Cc1ccc(C(=O)CSc2nnc(N)s2)c(C)c1	0.2%	12%	-56%	7
COc1ccc2cc(C(=O)NCc3ccccc3)[nH]c2c1	-2.7%	8%	-26%	·
COc1ccc(CC2(CO)CCN(Cc3cnn(-c4ccc(F)cc4)c3)CC2)cc1	-4.3%	0%	10%	-1
CC1CCCN(C(=O)CSc2nc3ncccc3[nH]2)C1 (stereo unspecified)	2.7%	-4%	-15%	-4
CCOC(=O)c1cc(C(=O)c2ccccc2O)cn2c(=O)c3c(C)c(C)sc3nc12	·	·	-1%	1
CCCn1c(SCc2ccccn2)nc2c1c(=O)n(C)c(=O)n2C	0.6%	-11%	-18%	-6
COc1cc(C=O)ccc1OCc1ccncc1	-3.4%	-13%	-4%	·
CCN(CC)S(=O)(=O)c1cccc(C(=O)N[C@H](C(=O)OCC(=O)Nc2ccccc2)C(C)C)c1	0.0%	4%	-21%	0
CN(C)c1ccc(/C=N/NC(=O)C[n+]2ccccc2)cc1	-0.3%	1%	·	·
COc1cc(C(c2c(O)nc(SC)[nH]c2=O)c2c(O)nc(SC)[nH]c2=O)cc(OC)c1OC	-4.8%	-13%	-1%	·
Brc1ccc2ncnc(Nc3ccc(N4CCOCC4)cc3)c2c1	0.3%	18%	18%	-2
Cc1ccc(S(=O)(=O)NC(N)=NCCc2ccc(Cl)cc2)cc1C	0.9%	2%	-14%	3
CCOc1ccc(N2CC(C(=O)Nc3ccc4c(c3)OCO4)CC2=O)cc1 (stereo unspecified)	-1.9%	-7%	-1%	7
Cc1cc(C)cc(N(C(=O)c2snc(C(N)=O)c2N)C(C(=O)NCC2CCCO2)c2ccc(C)o2)c1 (stereo unspecified)	-0.9%	1%	18%	·
O=C1C2C3c4ccccc4C(c4ccccc43)C2c2nc3ccccc3n21 (stereo unspecified)	-0.6%	9%	-4%	-8
N#Cc1ccc(OCCN2C(=O)NC3(CCSC3)C2=O)cc1 (stereo unspecified)	4.5%	-5%	-2%	5
CCNC(=S)Nc1ccc(N2CCCCC2)cc1	-0.7%	12%	-37%	4

Among those listed so far, these contain a thiophene ring, fused or not.
SMILES	Rango-impB inh	Rango release inh	miR-21 reporter	GLA inh pH 4.5
Cc1c(C)[n+](=O)c(-c2cccs2)c(C)n1[O-]	-2.6%	-5%	-5%	2
NS(=O)(=O)c1ccc(NC(=O)CSc2nnc(Cc3cccs3)n2-c2ccccc2)cc1	-4.5%	-8%	-8%	-5
CCOC(=O)CCN(Cc1sccc1C)S(=O)(=O)c1ccc(F)cc1	1.8%	15%	0%	-3
CCOC(=O)c1cc(C(=O)c2ccccc2O)cn2c(=O)c3c(C)c(C)sc3nc12	·	·	-1%	1

(continued)
SMILES	Rango-impB inh	Rango release inh	miR-21 reporter	GLA inh pH 4.5
COc1ccc(NC(=S)N(CCC(C)C)C(C)c2ccncc2)cc1 (stereo unspecified)	4.2%	17%	-10%	-3
CCOC(=O)C1(C)NC(c2ccccc2F)C2C(=O)N(CC)C(=O)C21 (stereo unspecified)	-4.6%	2%	-1%	4
O=C(Cn1c(=O)oc2cc(S(=O)(=O)N3CCCC3)ccc21)NC1CCCCC1	1.5%	6%	-1%	·
CCOC(=O)c1cccc(C2=CC(=O)CC(C)(C)C2)c1	-1.2%	-8%	·	·
CN1CC[C@]23c4ccccc4N[C@H]1[C@]21CCN(C)[C@H]3Nc2ccccc21	-1.1%	14%	·	·
COc1ccc(S(=O)(=O)N2CCC(C(=O)N3CCc4ccccc4C3)CC2)cc1Cl	-0.9%	17%	-12%	-4
CC1CCN(C(=O)CN2C(=O)c3ccccc3S2(=O)=O)CC1	1.4%	10%	6%	5
CC1CCN(S(=O)(=O)c2ccc3ccccc3c2)CC1	0.7%	-10%	0%	-8
COc1ccc(/C=C/c2nc(S(=O)(=O)c3ccccc3)c(N(C)C)o2)cc1	-0.2%	9%	3%	·
COc1ccc(-c2oc3cc(O)c(OC)c(O)c3c(=O)c2OC)cc1	4.7%	-10%	7%	-3
CCCS(=O)(=O)N1CCC(C(=O)Oc2ccc(OC)cc2)CC1	2.5%	-13%	-1%	·
CC(C)(C)NC(=O)NCCc1ccccc1	2.5%	9%	-48%	4
COc1ccc(N(CC(=O)NC2CCCCCC2)S(=O)(=O)c2c(C)nn(C)c2C)cc1	3.6%	4%	-6%	-12
